# Compound activity from PubChem.
# RecA intein inh: Mtb RecA intein splicing inhibitors, primary screen, biochemical, fluorescence, HTS. Protein RecA (Mycobacterium tuberculosis (strain ATCC 25618 / H37Rv)), P9WHJ3. cell-free RecA intein splicing. inhibition, %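 (about 9 µM by stock and volumes)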. 0.75% of 290,000 active; in the data active = inhibition above about 30%; inconclusive = no clear call, values can overlap the other calls;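 note: 0% = vehicle wells and 100% = reference inhibitor control wells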
# Target sequence (P9WHJ3 whole entry, looked up): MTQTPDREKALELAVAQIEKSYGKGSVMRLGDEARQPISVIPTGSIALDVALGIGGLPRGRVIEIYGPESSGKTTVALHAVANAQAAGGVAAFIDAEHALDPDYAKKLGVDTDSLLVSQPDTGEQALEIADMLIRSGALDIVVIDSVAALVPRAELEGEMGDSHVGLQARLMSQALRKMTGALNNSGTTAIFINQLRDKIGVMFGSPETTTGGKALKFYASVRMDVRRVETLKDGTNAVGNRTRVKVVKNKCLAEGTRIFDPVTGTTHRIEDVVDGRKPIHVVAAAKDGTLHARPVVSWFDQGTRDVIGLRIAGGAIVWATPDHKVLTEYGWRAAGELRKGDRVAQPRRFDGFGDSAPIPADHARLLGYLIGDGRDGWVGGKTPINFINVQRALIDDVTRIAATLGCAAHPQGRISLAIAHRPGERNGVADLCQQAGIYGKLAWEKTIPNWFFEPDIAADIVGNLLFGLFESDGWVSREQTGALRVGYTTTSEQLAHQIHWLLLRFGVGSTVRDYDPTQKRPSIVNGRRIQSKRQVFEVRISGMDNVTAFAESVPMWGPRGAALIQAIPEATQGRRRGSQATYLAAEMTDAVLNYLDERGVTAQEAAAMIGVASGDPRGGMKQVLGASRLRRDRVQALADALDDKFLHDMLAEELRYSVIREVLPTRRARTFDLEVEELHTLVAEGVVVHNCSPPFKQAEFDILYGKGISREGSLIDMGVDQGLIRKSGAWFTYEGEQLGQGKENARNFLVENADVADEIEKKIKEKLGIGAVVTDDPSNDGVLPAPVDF
# Mtb betalactam: beta-lactam sensitization of Mtb H37Rv, H37Rv; M. tuberculosis H37Rv growth with meropenem, percent inhibition; hits of this screen are not shown here; 0.27% of 330,000 active; inhibition, % at 25 µM; AID 434955, 2010;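 active = about 74% or more and at least 40 points above the plate without the antibiotic, then above 30% in a dose series; inconclusive = first-round hits that could not be retested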;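 note: growth measured after seven days incubation then overnight dye step; 0% = bacteria only wells and 100% = bacteria with antibiotic; twin plates without the antibiotic show which effects depend on it; some results filed as inactive read as strong as hits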
# YopH PTP inh: YopH tyrosine phosphatase inhibitors, primary screen, biochemical, fluorescence Ex485/Em525; 0.16% of 140,000 active; inhibition, %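 (about 10 µM by stock and volumes)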; YopH tyrosine phosphatase [Yersinia enterocolitica];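 active = inhibition of 50% or more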;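 note: controls were vehicle for no effect and minimum signal wells for full effect; inactives centre near -20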
# Mtb H37Rv: M. tuberculosis H37Rv growth inhibitors, H37Rv strain (AID 1626); M. tuberculosis H37Rv growth inhibition; higher % means a stronger effect; inhibition, % at 10 µM; hits with a dose series show IC50 in µM; 0.95% of 220,000 active;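 active = confirmed in a dose series; inconclusive = inhibition above 80% but not taken into the dose series; inactive = below 80% or under 30% at every dose of the series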;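 note: bacteria incubated seven days before Alamar blue readout; 0% = bacteria only wells and 100% = bacteria with antibiotic wells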
# Arbovirus inh: antivirals against arbovirus infection, primary screen, cell-based, full library, 10K replicate subset; arbovirus infection cell-based antiviral screen; inhibition, % at 10 µM; 0.37% of 200,000 active; AID 1251, 2008;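 active = inhibition from about 30%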;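 note: bluetongue infection of BSR cells; cell survival read as ATP light after 72 h; 0% = infected wells without compound and 100% = uninfected wells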
# Arbovirus inh repeat: second read-out of Arbovirus inh, no call of its own (marks repeat the call); inhibition, %; measured here: 10K subset replicate screen; many hits read low in the repeat;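 first of two repeat runs on a subset; 0% = infected and 100% = uninfected wells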
# Starred values were filed as active, the others as inactive; ? = inconclusive; · = no result given. Some of the compounds tested; the hit share may differ from the screen's.
SMILES,RecA intein inh,Mtb betalactam,YopH PTP inh,Mtb H37Rv,Arbovirus inh,others
CCOC(=O)Nc1ccc2c(c1)N(C(=O)N(CC)CC)c1ccccc1CC2,6.1,4,3,9%,3,Arbovirus inh repeat=3
CCOC(=O)C1=C(COC(=O)/C=C/c2ccccc2)NC(=O)NC1C (centres undefined),-0.6,-8,·,·,·,
O=c1c(C=NCCCn2ccnc2)c(-c2ccccc2)[nH]n1-c1nc2ccccc2s1,-0.7,0,-19,3%,29,
Cc1ccc2oc(=O)cc(/C=C/c3ccccc3)c2c1,5.1,7,-34,10%,-9,
NNC(=O)C(Cc1ccccc1)NC(=O)OCc1ccccc1 (centres undefined),0.0,-8,·,4%,-3,
Cn1cccc1/C=N/NC(=O)c1ccc(OC(F)(F)C(F)F)cc1,2.0,0,-30,5%,-7,
COC(=O)c1cc(OC)c(OC)cc1NC(=O)c1ccc(OC)cc1,2.7,11,-25,2%,-5,
COCCOC(=O)c1c(NC(=O)CN2c3ccccc3CC2C)sc(C(N)=O)c1C (centres undefined),0.0,-2,·,7%,5,
Cc1ccc(Oc2ccc(C(F)(F)F)cc2[N+](=O)[O-])c([N+](=O)[O-])n1,-1.3,-4,·,3%,·,
NP(=O)(OCCCc1ccccc1)Oc1ccccc1Cl (centres undefined),4.2,-5,·,·,·,
COc1ccc(/C=C/c2ccc3ccccc3[n+]2C)cc1OC,-2.0,-1,·,·,·,
CCCN(CCC)C(=O)c1cc2c(=O)n3cccc(C)c3nc2s1,-16,5,·,·,·,
COCCN(C(=O)Nc1ccc(OC)cc1)c1nc2ccccc2s1,-0.4,6,·,·,·,
COc1ccc(/C(C)=N/NC(=O)CNC(=O)c2ccco2)c(OC)c1,-2.9,-10,·,·,·,
CCNc1nc(NCC)nc(N(C)n2cnnc2)n1,-2.0,-4,-34,-6%,-1,
CCN(CC)C(=O)COc1ccc(/C=N/NC(=O)c2cc(-c3ccccc3OC)nc3ccccc23)cc1OC,2.2,-9,·,·,·,
CCOC(=O)c1ccccc1NC(=O)Cc1sc(-c2cccnc2)nc1-c1ccc(C)cc1,2.1,10,-18,10%,-2,
CN1C(=O)C(C)(C)c2cc(S(=O)(=O)N3CCCCCC3)ccc21,0.0,-8,·,·,·,
NC(=O)Cn1cc(C(=O)c2ccccc2F)c2ccccc21,2.8,3,·,-1%,1,
Cc1nn(C)c(C)c1/C=N/NC(=O)C(C)(C)Oc1ccc(Cl)cc1,0.9,-1,-26,10%,1,
Cc1cc(C)c(S(=O)(=O)NCC(=O)O)cc1C,0.1,-2,-30,-2%,7,
Clc1ccc(-c2nc(-c3ccccn3)no2)cc1Cl,0.8,7,-14,0%,-5,Arbovirus inh repeat=1
Cn1c2ccccc2c(=O)c2c(=O)n(-c3ccccc3)c(-c3ccc(C(C)(C)C)cc3)nc21,5.5,77,·,18%,·,
CCOC(=O)c1[nH]c2ccc(OC)cc2c1NC(=O)c1ccccc1C(=O)O,-4.3,-6,·,·,·,
CC(=O)NC(Cc1ccccc1)C(=O)NC1CCN(C(=O)c2cnccn2)CC1 (centres undefined),-1.3,-1,2,-5%,3,
CC(C)(CO)NCc1cc(Br)ccc1OCc1ccccc1,2.1,6,-23,4%,7,
CC(=O)NC1=NN(C(C)=O)C(C)(c2ccc(C)cc2)S1 (centres undefined),-3.5,-7,-30,0%,-4,
Fc1cccc(Nc2cc(-n3cccn3)ncn2)c1,0.9,28,-8,6%,10,
C=CCOC(=O)CSCC(NC(=O)OC(C)(C)C)C(=O)OCC (centres undefined),5.2,11,-12,-1%,8,
Cc1cc(C)cc(NC(=O)NCc2ccccn2)c1,0.4,-14,·,·,·,
O=C(Nc1cccc(N2C(=O)C=CC2=O)c1)c1cccs1,3.3,-14,·,·,·,
CC(C)c1ccc(N(C(=O)c2snc(C(N)=O)c2N)C(C(=O)NC2CCCC2)c2ccncc2)cc1 (centres undefined),-1.6,22,·,·,·,
COc1cc(NS(=O)(=O)c2cn(C)cn2)cc(OC)c1OC,-3.6,-2,·,·,·,
CCOc1ccc(N2C(=O)c3ccc(C(=O)OCC(=O)N(CC)C4CCS(=O)(=O)C4)cc3C2=O)cc1 (centres undefined),6.9,91,·,>100µM*,2,
O=C(Nc1ccccc1)c1ccccc1O,2.3,-7,-12,-1%,10,Arbovirus inh repeat=5
Cc1cc(Cl)ccc1OCC(=O)N[C@@H](Cc1ccccc1)c1nc2ccccc2[nH]1,0.0,-1,-32,-2%,-15,
CCOc1ccccc1OCCCC(=O)Nc1nc2ccccc2[nH]1,-1.0,2,·,1%,-2,
COCCNC(=O)c1ccc(C)cc1C,-1.9,5,·,0%,2,
C=CCC1(CC=C)CCCN1C(=O)c1cc(COc2ccccc2SC)on1,4.9,?,·,·,·,
Brc1cc2c(cc1CN1CCN(c3ccccc3)CC1)OCCO2,5.8,-1,·,·,·,

# Compounds listed so far with bromine, in the order listed:
SMILES,RecA intein inh,Mtb betalactam,YopH PTP inh,Mtb H37Rv,Arbovirus inh,others
CC(C)(CO)NCc1cc(Br)ccc1OCc1ccccc1,2.1,6,-23,4%,7,
Brc1cc2c(cc1CN1CCN(c3ccccc3)CC1)OCCO2,5.8,-1,·,·,·,

# The listing continues.
SMILES,RecA intein inh,Mtb betalactam,YopH PTP inh,Mtb H37Rv,Arbovirus inh,others
CN1CCCN(C(=O)CNC(=O)Cc2ccccc2)CC1,2.8,-1,·,8%,3,
CC(C)c1ccc(NC(=O)C2CCCN(S(=O)(=O)c3cnc[nH]3)C2)cc1 (centres undefined),0.7,1,-34,-2%,7,
Cc1nc(-c2ccccc2)nc(Cl)c1Cl,4.7,-5,·,1%,0,
O=c1[nH]c(/C(Cl)=C/c2cccc(F)c2)nc2cc(C(F)(F)F)ccc12,2.4,-8,·,1%,12,
O=C(c1ccco1)N1CCN(c2ncnc3c2nnn3Cc2ccccc2Cl)CC1,-4.5,68,-21,2%,11,
CC(C)(C)C1(C)OC(C(=O)NC2CCCCC2)C(C(=O)NC2CCCCC2)O1 (centres undefined),1.2,9,0,9%,-2,
CC1(C)CC2CC(C)(CN2S(=O)(=O)c2ccc(C(=O)Nc3cc(S(=O)(=O)N4CCOCC4)ccc3Cl)cc2)C1 (centres undefined),3.6,5,-29,-3%,2,
Cn1c(N/N=C/c2ccccc2)nc2sc3c(c2c1=O)CCC3,-0.9,4,-33,-10%,-29,
CCCCC(=O)N/N=C/c1c(O)n(Cc2ccc(F)cc2)c(=O)[nH]c1=O,-6.4,19,·,1%,·,
CCC1(CC)Cc2ccccc2-c2nc(-c3ccccc3)oc(=O)c21,5.2,-1,-15,-4%,2,
COc1ccc(/C(C)=N/NC(=O)CNC(=O)Cc2ccccc2)c(OC)c1,1.7,16,·,-1%,·,
Cc1nc([N+](=O)[O-])cn1CC(=O)c1ccc(Cl)cc1,-5.3,8,·,·,·,
O=C(NNC(=O)C1CC=CCC1)c1ccccc1Br (centres undefined),-0.5,2,·,·,·,
CC(C)c1ccc(NC(=O)CCNS(=O)(=O)c2cccc3nsnc23)cc1,-1.2,-4,-8,3%,2,
CCc1ccc(N2C(=O)c3cc(N4CCOCC4)c([N+](=O)[O-])cc3C2=O)cc1,1.4,-9,-23,-2%,10,
O=C(CN(C(=O)CCC(=O)Nc1ccccn1)c1cccc(F)c1)NCc1ccc(F)cc1,3.9,-3,·,·,·,
O=C(NCCCN1CCCC1=O)c1cccc(S(=O)(=O)N2CCN(c3ccc(F)cc3)CC2)c1,0.7,0,·,·,·,
CC(O)C1C(=O)OC2(C)CC(C)(C)NC(=S)N12 (centres undefined),-0.9,-2,-17,-7%,2,
COCCCNC(=O)CSc1nc2ccc(N3CCOCC3)cc2c(=O)n1CCc1ccccc1,-0.5,-1,3,-5%,·,
O=S1(=O)NC(C2CC2c2ccccc2)CCO1 (centres undefined),1.8,12,·,·,·,
CCOc1ccc2ccccc2c1C(=O)Nc1cc(=O)n(C)c(=O)n1C,-0.1,-3,-17,3%,7,Arbovirus inh repeat=-5
Cc1cc(-c2nnc(SCC(=O)Nc3ccccc3C)n2N)n[nH]1,-0.9,-9,·,·,·,
CN(C)C(Cc1ccc(Cl)cc1)C(=O)c1ccccc1 (centres undefined),1.8,4,-4,2%,3,
O=S1(=O)CC/C(=N\Nc2ccccc2)c2ccsc21,2.3,13,·,39%,-10,
Cc1cc(-c2ccc(C)c(S(=O)(=O)NCc3ccc(Br)cc3)c2)on1,3.3,8,·,·,·,
Cc1cccc(NC(=O)Nc2ccc3c(c2)CCC3)c1,-0.7,-9,·,·,·,
CCc1ccc(-c2nn(-c3ccccc3)cc2C2SCC(=O)N2Cc2ccco2)cc1 (centres undefined),19,2,1,·,-21,
C/C(=N/NS(=O)(=O)c1ccc(C)cc1)c1ccc(NC(=O)C(F)(F)F)cc1,-2.5,-4,-35,8%,1,
O=C(O)Cn1c(C(F)(F)F)nc2ccccc21,0.3,3,-7,-5%,6,
CN(C)S(=O)(=O)c1cccc(NC(=O)COC(=O)c2cn(-c3ccccc3)nc2-c2ccccc2)c1,-2.2,6,-24,20%,0,
COC(=O)C1=C(c2ccccc2)C[C@@H]2CC[C@H]1N2C(=O)NCCS(C)=O (some centres undefined),-0.6,-10,·,-12%,·,
CC1CCN(c2nc3ccc(C(=O)NCCCN4CCCCC4)cc3s2)CC1,3.5,-2,·,·,·,
CCOc1ccc(N2C(=O)CC(Sc3nc(-c4cccs4)cc(C(F)(F)F)c3C#N)C2=O)cc1 (centres undefined),-0.1,85,34,2%,19,
Cc1cc(=O)n2ccccc2c1C#N,-62,-9,10,0%,1,
O=C(/C=C/c1cccc([N+](=O)[O-])c1)N1CCN(c2ccccc2F)CC1,2.9,0,-14,-3%,4,
CC(C(=O)Nc1ccccn1)N1C(=O)c2ccccc2S1(=O)=O (centres undefined),0.0,-8,·,·,·,
O=C(c1ccc(Cl)cc1)N1CCc2c([nH]c3ccccc23)C1C(F)(F)F (centres undefined),-1.0,3,·,22%,·,
CCN1CCN(c2cc(C)c3cc(NC(=O)c4ccc(OC)c(OC)c4)ccc3n2)CC1,0.2,4,-34,6%,-44,
Cc1ccc([C@@H]2[C@@H]3C(=O)N(C)C(=O)[C@@H]3[C@]3(C)C(=O)N(Cc4ccccc4)CC(=O)N23)o1,0.8,0,·,·,·,
Cc1c(NC(=O)c2ccco2)cccc1-c1nc2cccnc2s1,1.1,-9,-45,6%,10,Arbovirus inh repeat=4

# Sorted by count of non-hydrogen atoms (smallest number first): 5 of the compounds above.
SMILES,RecA intein inh,Mtb betalactam,YopH PTP inh,Mtb H37Rv,Arbovirus inh,others
CN1CCCN(C(=O)CNC(=O)Cc2ccccc2)CC1,2.8,-1,·,8%,3,
C=CCOC(=O)CSCC(NC(=O)OC(C)(C)C)C(=O)OCC (centres undefined),5.2,11,-12,-1%,8,
Cc1cc(-c2nnc(SCC(=O)Nc3ccccc3C)n2N)n[nH]1,-0.9,-9,·,·,·,
CCC1(CC)Cc2ccccc2-c2nc(-c3ccccc3)oc(=O)c21,5.2,-1,-15,-4%,2,
COc1ccc(/C(C)=N/NC(=O)CNC(=O)Cc2ccccc2)c(OC)c1,1.7,16,·,-1%,·,

# Following part:
SMILES,RecA intein inh,Mtb betalactam,YopH PTP inh,Mtb H37Rv,Arbovirus inh,others
CC(Cl)C(=O)c1ccc2c(c1)CCN2C(=O)C1CC1 (centres undefined),·,68,·,-1%,2,
Cc1ccccc1C(=O)Nc1c2c(nn1C(C)(C)C)CS(=O)(=O)C2,-0.4,3,·,·,·,
Clc1ccc(OCc2nc(-c3ccccn3)no2)c(Br)c1,0.2,-5,-20,8%,-36,
O=C(CN1C(=O)NC2(CCCCC2)C1=O)N1CCN(S(=O)(=O)c2cccc(F)c2)CC1,0.0,-10,·,·,·,
Cc1nc(C)c(C(=O)Nc2cccc(C)c2C)o1,3.2,-4,-28,0%,2,Arbovirus inh repeat=5
CCN(CC)CCOc1ncnc2c1oc1ccccc12,0.0,9,-49,4%,-4,
CN(C)CC#CCC(O)(c1ccccc1)C1CCCCC1 (centres undefined),3.2,2,·,·,·,
C[C@@H](Oc1ccccc1)c1nnn(Cc2ccccc2)c1-c1c([C@@H](C)Oc2ccccc2)nnn1Cc1ccccc1,2.7,1,·,5%,·,
CCN1CCN(C(=O)/C=C/c2c(F)cccc2Cl)CC1,-0.1,-1,-6,8%,2,
CCOc1ccc(NC(=O)CSc2nnc(Cn3c(=O)sc4ccccc43)n2C)cc1,·,7,-27,4%,-3,Arbovirus inh repeat=-2
Cc1ccc(-c2c(C(=O)NNC(=S)NCC3CCCO3)csc2C)cc1 (centres undefined),3.1,-3,·,8%,16,
CCN(Cc1ccccc1)Cc1cccc([N+](=O)[O-])c1,1.2,·,-32,-7%,-2,
